# Compound activity deposited in PubChem BioAssay by National Center for Advancing Translational Sciences (NCATS).
# Menin MLL FP FL – displaces fluorescein MLL peptide from human menin; Fluorescence polarization, fluorescein-MLL peptide displacement from menin; FP activity change, % at 61.4 µM; 290,000 tested, under 10 active; inconclusive = falling polarisation curve, or a change in total fluorescence; inactive = total fluorescence flat and polarisation flat or rising; no compound was filed as active; the % refers to the polarisation; negative = inhibition;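 further: % of control where 0% means no effect; inhibitors lower the polarisation; unlabelled MLL peptide was the positive control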
# TRPML1 ag – human mucolipin-1 channel agonism; activation, % (concentration not given with the values); 0.12% of 410,000 active; Q9GZU1; TRPML1-expressing cells, Ca2+ dye fluorescence, FDSS; host cell line not named in the record; reference of the full effect not given here; in the data active = activation above about 50%; inconclusive = about 30% to 50%; inactive = below about 30%; further: 0% is about no effect; the text of the record puts the active cut at 80%
# Target sequence (Q9GZU1 whole entry, looked up): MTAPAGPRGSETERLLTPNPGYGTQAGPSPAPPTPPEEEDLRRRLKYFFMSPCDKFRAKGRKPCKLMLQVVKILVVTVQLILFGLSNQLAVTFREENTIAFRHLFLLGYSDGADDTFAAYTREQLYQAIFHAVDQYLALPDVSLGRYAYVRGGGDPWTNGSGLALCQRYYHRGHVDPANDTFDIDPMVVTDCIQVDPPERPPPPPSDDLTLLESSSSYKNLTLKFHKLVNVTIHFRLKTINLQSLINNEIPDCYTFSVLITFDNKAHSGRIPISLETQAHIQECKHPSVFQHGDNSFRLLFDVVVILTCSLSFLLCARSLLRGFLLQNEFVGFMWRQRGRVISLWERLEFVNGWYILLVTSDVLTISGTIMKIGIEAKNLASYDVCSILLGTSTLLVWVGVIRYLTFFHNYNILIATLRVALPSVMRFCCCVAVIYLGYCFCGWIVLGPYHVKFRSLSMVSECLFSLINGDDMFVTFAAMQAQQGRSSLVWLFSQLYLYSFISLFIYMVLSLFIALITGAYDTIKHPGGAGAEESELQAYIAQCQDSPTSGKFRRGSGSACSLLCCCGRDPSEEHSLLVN
#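 Kinetic FDSS Ca2+ read in Tet-induced TRPML1-DL cells (ABD Ca8 dye plus quencher, 45-90 min RT loading): baseline, then compound, then 110 s agonist window; EC80 agonist 54-4 at 4uM final added afterwards for a 110 s antagonist window.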
# Sfp PPTase inh – inhibitors of Bacillus subtilis Sfp phosphopantetheinyl transferase; Q9F4F7; Biochemical Sfp PPTase activity, qHTS; Potency, µM, inactives show max response, negative = inhibition, hits mostly inhibitors; 3.5% of 310,000 active; AID 1490; active means well fitted inhibition curve with a large enough effect; inconclusive means small, poorly fitted or top-dose-only effect, or another doubt; inactive means no such curve, though single readings can be large or run the other way;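 further: the enzyme is Sfp with the accession as filed and its product quenches rhodamine fluorescence; potency means the concentration at half of the fitted maximal effect; 0% = enzyme reaction without inhibitor and -100% = no enzyme wells; top concentration of the series not given in the record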
#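 With Hepes-Na pH 7.6 buffer containing 10 mM MgCl2, Sfp (15 nM) modified BHQ-2-YbbR (12.5 uM) using rhodamine-CoA (5 uM). Two reads 30 minutes apart at 525/598 nm yielded each well's rate.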
# TRPV1 PAM – potentiators of human vanilloid receptor 1 (TRPV1). Q8NER1. TRPV1-expressing cells, Fluo-8 calcium influx, capsaicin EC20 potentiation; host cell line not named in the record; control for the full effect not named in the record. potentiation, % at 8.33 µM. 0.02% of 320,000 active. AID 540277; active means potentiation above 80%; inconclusive means 30% to 80%; inactive means below 30%; further: 0% is about no effect
#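 Fluo-8 calcium influx in TRPV1-expressing cells, kinetic read (ex 480/em 520 nm). Compound added and read 3 min for agonist activity, followed by capsaicin at EC20 final and 2 min further read for enhancement.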
# ClpP mod – qHTS Assay for Activators of ClpP; ATP-dependent Clp protease proteolytic subunit (Bacillus subtilis (strain 168)), P80244; AID 651965, 2013; purified B. subtilis ClpP, FRET peptide cleavage, 20 min; 1.9% of 340,000 active; Potency, µM (top dose mostly 57.5 µM), for the others: at the highest dose activity change, negative = active; active = well fitted falling curve with a large enough effect; inconclusive = small, poorly fitted or top-dose-only effect; inactive = no such curve, though single readings can be large or run the other way; further: potency means the concentration at half of the fitted maximal effect; the source files actives as falling curves though it sought activators and does not explain the sign; nearly all actives have a fitted effect of over 65% in size; many hits overshoot -100%
# Target sequence (P80244 whole entry, looked up): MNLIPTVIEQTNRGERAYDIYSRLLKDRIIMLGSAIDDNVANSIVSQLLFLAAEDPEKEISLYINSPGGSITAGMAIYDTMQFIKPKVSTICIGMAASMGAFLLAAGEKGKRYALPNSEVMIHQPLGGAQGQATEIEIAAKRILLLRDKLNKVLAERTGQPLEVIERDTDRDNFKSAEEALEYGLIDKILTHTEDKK
#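 ClpP 10 microg/mL final, pH 8 Tris/KCl buffer with BSA, glycerol, Tween-20; compound pinned in; FRET-FV substrate; RT 20 min; Ex320/Em430; ΔFRET vs ADEP 5.8 microM, DMSO, no enzyme.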
# TRPML1 inh – inhibitors of human TRPML1 channel | Q9GZU1 | TRPML1-inducible cells, Ca2+ dye fluorescence, FDSS; stronger effect = lower value; inhibition of EC80 agonist-evoked calcium signal | activity change, negative = inhibition, % (concentration not given with the values) | 0.02% of 390,000 active; in the data active means activity change below about -50%; inconclusive means about -30% to -50%; inactive means above about -30%;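 further: stimulus is agonist 54-4 at its EC80 concentration; on the % scale 0 is the no-effect control and ±100 the full control effect; compound concentration not given in the record; the text of the record puts the active cut at -80%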
#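 TRPML1-DL cells, Tet-induced overnight (~16 h, 37 °C) at 1,500 cells/well, were loaded with Ca8 no-wash dye plus quencher for 45-90 min at room temperature. Compounds were pinned during FDSS kinetic reading; agonist 54-4 at EC80 (4 uM final) then added.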
# PINK1 expr mod – changes PINK1 expression. Potency, µM (doses to about 76.6 µM), inactives show top-dose activation (PINK1 increase), usual class: activators. AID 624263. PINK1 immunofluorescence, high-content cytometry, 24 h. 0.2% of 410,000 active; active = well fitted activation curve with a large enough effect; inconclusive = small, poorly fitted or top-dose-only effect; inactive = flat fitted curve, though single readings scatter; cell line not stated here;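 further: potency means the concentration at half of the fitted maximal effect; % of control where 0% means no effect; nearly all actives have a fitted effect of over 65% in size; a mitochondrial uncoupler was the plate control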
#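 Compound titrations (5 concentrations, 24 h) on a stable cell line; DMSO and CCCP controls. Endpoint: fixed-cell PINK1 immunofluorescence with mitochondrial, cell and nuclear markers, scanned by microplate cytometer.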
# Starred values were filed as active, the others as inactive; ? = inconclusive; nt = no result given; [ ] = dose if it differs, or a comment.
SMILES,Menin MLL FP FL,TRPML1 ag,Sfp PPTase inh,TRPV1 PAM,ClpP mod,TRPML1 inh,PINK1 expr mod
CC(C(N)=O)N1c2cccc3cccc(c23)S1(=O)=O (stereo not given),1.2,1.5,18.3%,4.9,nt,-19.7,-0.5%
CC(=O)Nc1cnc(-c2ccccc2O)cn1,nt,0.0,nt,nt,-16.8%,nt,0.9%
CC(C)N(Cc1ccccc1)C(=O)COC(=O)c1cnccn1,-0.7,-0.6,0.0%,-2.1,-0.3%,4.4,0.6%
Cc1nnc(SCC(=O)Nc2ccc(Br)cc2)[nH]c1=O,nt,0.9,nt,nt,0.6%,5.0,2.0%
COc1ccc(S(=O)(=O)NCCSCc2ccco2)cc1Cl,4.0,0.4,-19.6%,13.6,-2.8%,-17.7,-0.3%
O=C(CN1C(=O)COc2ccccc21)NCCCN1CCN(c2ccccc2F)CC1,nt,-0.7,5.0%,14.1,-3.4%,-5.1,-1.8%
CCCc1ccc(C(=O)CCC(=O)NNC(=O)c2ccncc2)cc1,nt,-0.5,19.7%,-1.8,0.8%,33.5,-1.2%
CN(C)c1ccc(/C=N\NC(=O)CC#N)cc1,-0.1,-0.1,14.4%,-2.0,nt,16.9,1.5%
C(=N\c1ncnc2sccc12)/NOCc1ccccc1,8.6,0.6,14.5%,-0.9,-1.0%,-9.8,-3.8%
COc1ccc(CNc2c(C(=O)O)cnc3c2cnn3C)cc1,0.1,2.4,19.7%,-5.4,nt,25.7,-2.8%
Cc1c(C(=O)Nc2cccc([N+](=O)[O-])c2)csc1-c1ccccc1,0.1,0.4,-9.8%,nt,2.3%,8.8,?
COc1ccc(C(=O)Nc2ccnn2C2CCN(Cc3ccccn3)CC2)cc1,-1.3,-0.3,-2.3%,-7.1,1.1%,6.3,-1.9%
CCc1ccc(N=C2NC(=O)/C(=C/c3cc(Br)c(OCC(=O)O)c(OC)c3)S2)cc1,3.3,-0.6,1.7%,-2.2,nt,-4.6,0.2%
CC1CCN(C(=O)CSc2nc3c(c(=O)n2C)SCC3)CC1,nt,1.5,5.8%,-8.3,28.2µM*,?,1.3%
COc1ccc(N(Cc2ccccc2)S(=O)(=O)c2cccc(C(=O)Nc3ncccc3C)c2)cc1,nt,2.4,nt,7.8,-10.4%,-4.6,-1.5%
Cc1cccc(CNc2ccnc(-c3cccc(NS(C)(=O)=O)c3)n2)c1,1.3,nt,-10.3%,nt,nt,nt,2.2%
Cc1nn(-c2ccccc2)c2ncc(C(=O)c3cc(Cl)ccc3O)cc12,4.8,1.5,2.2%,15.4,1.8%,33.6,28.2µM*
COc1c(C)cc(Br)cc1C(=O)NC(=S)NCc1ccco1,nt,0.7,-6.0%,-12.5,1.2%,-3.8,4.4%
O=C(Nc1ccc(F)cc1)Nc1ccc2c(c1)OCO2,nt,-0.6,7.9%,-14.3,0.9%,-13.1,0.1%
CCOC(CNC(=O)c1cc(C)nn1-c1ccccc1)OCC,-0.3,-0.3,3.7%,-9.5,-1.2%,-14.4,?
Cc1ccc(S(=O)(=O)Nc2ccc(C(=O)N3CCOCC3)cc2)cc1,nt,-1.1,10.2%,25.3,?,-13.0,0.0%
O=C(Nc1cccc(-c2nnc(-c3ccccc3)o2)c1)C1CCCCC1,0.9,0.8,4.4%,-4.2,-4.2%,8.1,14.6%
O=C(CSc1ncn[nH]1)N1N=C2/C(=C/c3ccccc3)CCCC2C1c1ccccc1 (stereo not given),3.5,1.0,2.4%,-2.5,?,31.8,-0.7%
CN(C)S(=O)(=O)c1ccc(NC(=O)c2ccncc2)cc1,2.6,-0.7,24.7%,1.6,nt,2.3,1.7%
COc1ccc(F)cc1S(=O)(=O)NC(Cc1ccccc1)C(N)=O (stereo not given),-0.5,0.4,6.2%,nt,0.2%,-3.0,-1.4%
c1cc(-c2cc3c(o2)CCCC3OCCN2CCOCC2)cs1 (stereo not given),nt,0.3,nt,nt,?,nt,2.4%
COC1=C(C)C(=O)C2=C(C1=O)C1C3CC4=C(C(=O)C(OC)=C(C)C4=O)C(CNC(=O)C(C)=O)N3C(C#N)C(C2)N1C (stereo not given),nt,1.1,nt,nt,-1.7%,-0.4,-6.2%
Cc1ccc(S(=O)(=O)N(CCC(=O)O)c2ccccc2)cc1,-1.4,0.4,-9.4%,2.9,1.0%,13.1,8.1%
CC(C)(C)OC(=O)C[C@@H]1C/C=C\C[C@@H](CC(=O)NCCO)C(=O)NC[C@H](c2ccccc2)OC1=O,nt,-0.6,nt,nt,0.3%,-1.9,-2.2%
COc1ccccc1NC(=O)c1csc2c1CCC(C)C2 (stereo not given),7.2,-0.3,?,2.9,-2.3%,-3.3,10.0%
Cc1sc(NC(=O)c2cc(-c3ccccc3)nc3ccccc23)c(C(N)=O)c1C,19.3,-0.2,-12.3%,-1.2,1.3%,3.8,10.8%
O=c1[nH]c(CN2CCc3ccccc3C2)nc2ccccc12,4.5,-0.1,-17.0%,1.7,-7.9%,-1.7,1.8%[38.3 µM]
CCOC(=O)c1c(C)n(C)c2cc(Br)c(C(=O)OC)cc12,-0.7,2.6,0.1%,-5.4,-0.4%,34.9,2.3%
O=C(NNC1=C(C(=O)C(F)(F)F)CCC1)c1cccc(O)c1,4.6,-0.1,24.7%,-16.6,-1.2%,-1.3,1.0%
COc1ccc(/C=C(\C#N)C(=O)c2c(C)[nH]c3ccccc23)cc1OC,18.3,0.7,-3.9%,7.7,2.4%,-4.4,-1.0%
CC(Oc1ccc(Cl)cc1Cl)C(=O)NCCCN(C)C (stereo not given),2.1,0.0,16.4%,24.6,-0.1%,19.1,-5.4%[38.3 µM]
CN(c1ccccc1)S(=O)(=O)CS(=O)(=O)N(C)c1ccccc1,nt,0.9,nt,nt,-2.8%,20.0,-0.6%
Cc1c(NC(=O)COC(=O)c2ccc(Br)o2)c(=O)n(-c2ccccc2)n1C,6.7,0.2,24.1%,0.3,2.8%,-9.3,0.4%
CCOc1ccc(NC(=O)COC(=O)C2C3CC4OC(=O)C2C4C3)cc1 (stereo not given),-0.9,-0.3,10.0%,11.8,nt,7.2,6.2%
CCOC(=O)c1sc(NC(=O)c2ccc(S(=O)(=O)N(CC)CC)cc2)nc1C,2.3,4.9,-1.8%,7.4,42.9%,-19.0,6.5%
COC(=O)C1CCN(S(=O)(=O)c2ccc(NC(C)=O)cc2)CC1,0.1,-0.5,11.8%,5.8,1.0%,-12.7,0.6%
CNC[C@H]1Oc2ccc(NC(=O)Nc3ccc4c(c3)OCO4)cc2C(=O)N([C@H](C)CO)C[C@@H]1C,nt,-0.5,nt,nt,-0.7%,-13.5,2.0%
CCc1ccccc1S(=O)(=O)Cc1ccc(C(=O)NCCc2ccc(C)cc2)o1,nt,2.5,nt,nt,-0.4%,19.0,0.3%
Cc1ccc(Nc2nnc(SCc3nc4ccccc4c(=O)[nH]3)s2)cc1,3.7,0.4,-9.8%,18.0,1.2%,60.2,29.3%
O=C(CCn1c(=O)c2cccn2c2cccnc21)NCc1ccc(F)cc1,nt,-0.8,nt,nt,?,9.8,-0.4%
Cc1c(N)cc(S(=O)(=O)O)cc1NC(=O)c1cccc([N+](=O)[O-])c1,nt,-0.8,nt,nt,nt,0.8,0.6%
CCOc1ccc(C(=O)Nc2ccccc2N2CCN(C(=O)c3ccccc3)CC2)cc1[N+](=O)[O-],nt,0.4,-1.7%,-0.7,-2.7%,70.7,18.9%
O=C(NC1c2ccccc2-c2ccccc21)N1CCOCC1,-2.1,-0.6,14.0%,-9.8,0.5%,-1.7,-1.0%[38.3 µM]
O=c1cnc2cnc(N3CCOCC3)nc2n1C1CC1,1.2,nt,24.9%,nt,nt,nt,-0.8%
Cc1ccc(CNC(=O)COc2cccc3c2OC(C)(C)C3)cc1,nt,2.0,nt,8.2,1.1%,8.7,2.4%
O=C(CCCCC(=O)N1CCOCCOCCOCC1)OCc1ccccc1,-0.7,0.2,23.0%,7.7,nt,-11.8,0.7%
CCOC(=O)CNC(=O)C1CCN(S(=O)(=O)c2ccc(-c3nn[nH]n3)cc2)CC1,-0.3,-0.5,-1.1%,1.7,nt,2.4,-0.9%
CC(C)COc1ccc(C/C(N)=N/n2cnnc2)cc1,0.4,0.1,8.1%,-11.2,nt,-2.6,2.1%
O=C(OCC(=O)N(CCc1ccccc1)Cc1ccccc1)c1cccc(O)c1,nt,-0.4,nt,nt,-3.6%,-5.9,1.8%
CC(=O)Nc1c(C)nn(C(C)=O)c1C,0.9,0.3,11.1%,5.2,-0.6%,36.9,1.9%
CC1(C)NC(C(=O)O)Cc2c1[nH]c1ccccc21 (stereo not given),1.0,0.5,9.4%,-5.9,nt,-8.6,-0.3%
COc1cc(C(=O)Nc2ccccc2N2CCN(S(C)(=O)=O)CC2)cc(OC)c1OC,4.5,-1.0,10.0%,-0.9,1.1%,2.6,1.9%
Fc1ccc(C2c3[nH]c4ccccc4c3CCN2CCCn2cccn2)cc1 (stereo not given),3.2,0.2,6.2%,-11.5,nt,-9.6,-1.5%
CC1CCCN(c2ccc([N+](=O)[O-])s2)C1 (stereo not given),25.7,0.5,50.1µM*,-14.1,-0.1%,-8.3,-1.5%
COc1ccc(S(=O)(=O)Nc2ccc3c(c2)N(C(C)=O)CCC3)cc1F,nt,1.9,nt,nt,-29.7%,-25.2,1.6%

# (listing goes on)
SMILES,Menin MLL FP FL,TRPML1 ag,Sfp PPTase inh,TRPV1 PAM,ClpP mod,TRPML1 inh,PINK1 expr mod
CCCCN(C(=O)c1cnc2n(c1=O)CCS2)c1ccccc1,-2.8,-0.1,9.7%,2.2,-0.9%,30.7,1.8%
Cc1cccc(-c2c3c(=O)n(C)c(=O)n(C)c3cn2C(C)(C)C)c1,0.6,-0.3,10.5%,-12.8,-2.1%,5.6,-0.2%[38.3 µM]
CNC(=O)CCc1[nH]c2ccccc2c1Sc1ccccc1,0.6,-0.5,3.8%,13.7,-3.7%,-18.8,3.8%
COc1ccc(C(=O)NCc2nnc(SCC(=O)N3CCCCC3)o2)cc1,1.4,1.5,7.1%,-7.7,nt,3.9,-0.9%
CCCOc1ccc(CNC(=O)c2cc3ccccn3n2)cc1,nt,-0.5,nt,nt,-11.3%,30.5,4.3%
